PME-1 primary: blocks human protein phosphatase methylesterase 1. inhibition, % at 5.9 µM. Q9Y570. recombinant PME-1, FP-Rh probe fluorescence polarization. actives 0.53% (n = 320,000);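 active means inhibition above the campaign mean of all compounds plus 3 SD, cut at about 26% in these data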;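 further: competitive labeling of PME-1 active site by serine hydrolase directed probe; 0% = PME-1 with DMSO and 100% = wells lacking PME-1 enzyme; inhibitors block probe labeling so polarization falls and inhibition rises; many of its hits are not listed in these tables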
MEX-5 binding: C. elegans MEX-5 TCR-2 RNA binding activity; Q9XUB2; MEX-5/FITC-TCR2 RNA binding, fluorescence polarization; stronger effect = lower value; activity score (negative = inhibition of binding), % at 10 µM; actives 0.38% (n = 300,000);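 active means inhibition past about -25% in most replicates, and total fluorescence under double the plate's negative control median, limit read from the data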;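 further: 0% = DMSO and -100% = 5 µM competing unlabeled TCR2 RNA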
TPT1 inh: inhibitors of Candida albicans tRNA 2'-phosphotransferase TPT1; inhibition, % at 5 µM; recombinant caTPT1, FP RNA substrate dephosphorylation; actives 0.81% (n = 300,000);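 active means inhibition above the mean of all tested compounds plus 3 SD, set per screening campaign, cut at about 24% in these data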;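 further: plate controls were DMSO alone for no effect and ferristatin control at 100 nM for full effect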
MCL1-BIM inh: inhibitors of human MCL1 binding to BIM-BH3 peptide | AID 2057 | inhibition, % at 10.9 µM | actives 0.68% (n = 320,000) | GST-MCL1 / FITC-Bim-BH3 fluorescence polarization;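 active means inhibition above the mean inhibition of all tested compounds plus 3 SD, set per campaign, cut at about 40% in these data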;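 further: 0% = DMSO wells and 100% = unlabeled Bim-BH3 peptide control; higher means more loss of mP so more displacement of Bim peptide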
Bcl-xL primary: blocks human Bcl-xL binding to Bim BH3 peptide; Q07817; GST-Bcl-xL / FITC-Bim BH3 peptide fluorescence polarization; inhibition, % at 10.9 µM; actives 0.7% (n = 320,000); AID 2129;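 active means inhibition above the mean of all tested compounds plus 3 SD, cutoff set per campaign, cut at about 30% in these data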;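 further: 0% = DMSO wells and 100% = unlabeled Bim-BH3 peptide competitor; inhibitors lower millipolarization by displacing the labeled peptide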
PAD4 inh: PAD4 (human) enzyme inhibition; recombinant PAD4, RCA probe fluorescence polarization; inhibition, % at 6.36 µM; Q9UM07; actives 0.41% (n = 330,000);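 active means percent inhibition above a cutoff equal to the mean of all tested compounds plus 3 SD, cut at about 15% in these data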;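 further: 0% = PAD4 with RCA probe and DMSO and 100% = probe without PAD4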
Target sequence (Q9UM07 whole entry, looked up): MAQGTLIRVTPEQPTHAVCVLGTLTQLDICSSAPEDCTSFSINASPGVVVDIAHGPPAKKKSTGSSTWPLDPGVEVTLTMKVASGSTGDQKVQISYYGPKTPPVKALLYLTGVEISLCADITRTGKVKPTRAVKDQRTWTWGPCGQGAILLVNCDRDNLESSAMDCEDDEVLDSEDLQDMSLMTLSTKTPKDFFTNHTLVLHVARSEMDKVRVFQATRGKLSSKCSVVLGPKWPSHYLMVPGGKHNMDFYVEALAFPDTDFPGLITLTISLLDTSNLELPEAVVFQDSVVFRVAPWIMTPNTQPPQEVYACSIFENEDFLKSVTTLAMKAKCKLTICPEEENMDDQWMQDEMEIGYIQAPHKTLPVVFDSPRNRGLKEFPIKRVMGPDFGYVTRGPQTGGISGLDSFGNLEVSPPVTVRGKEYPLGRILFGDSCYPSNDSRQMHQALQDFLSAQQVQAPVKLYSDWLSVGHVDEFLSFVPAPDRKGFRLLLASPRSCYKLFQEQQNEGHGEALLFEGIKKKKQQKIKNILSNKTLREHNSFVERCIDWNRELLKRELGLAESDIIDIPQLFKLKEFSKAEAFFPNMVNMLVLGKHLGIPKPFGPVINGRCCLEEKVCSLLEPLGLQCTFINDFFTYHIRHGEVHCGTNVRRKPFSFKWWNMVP
Fam108B counter: counter-screen for RBBP9 inhibitors: inhibitors of mouse Fam108B | recombinant Fam108B, FP-Rh probe fluorescence polarization | inhibition, % at 9.51 µM | actives 0.33% (n = 300,000) | AID 1947;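 active means inhibition above the screen mean inhibition plus 3 SD, computed separately per campaign, cut at about 18% in these data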;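 further: inhibitors lower polarization as less probe binds the enzyme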
GLD-1 TGE inh: GLD-1-TGE RNA interaction inhibition (C. elegans); Q17339; purified GLD-1 + fluorescein TGE RNA, fluorescence polarization; inhibition, % at 5.96 µM; actives 0.44% (n = 320,000); AID 2280;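 active means percent inhibition above a per-plate cutoff, the plate mean of test compounds plus 3 SD, cut at about 30% in these data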;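 further: 0% = DMSO wells with GLD-1 and probe and 100% = wells lacking GLD-1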
Target sequence (Q17339 whole entry, looked up): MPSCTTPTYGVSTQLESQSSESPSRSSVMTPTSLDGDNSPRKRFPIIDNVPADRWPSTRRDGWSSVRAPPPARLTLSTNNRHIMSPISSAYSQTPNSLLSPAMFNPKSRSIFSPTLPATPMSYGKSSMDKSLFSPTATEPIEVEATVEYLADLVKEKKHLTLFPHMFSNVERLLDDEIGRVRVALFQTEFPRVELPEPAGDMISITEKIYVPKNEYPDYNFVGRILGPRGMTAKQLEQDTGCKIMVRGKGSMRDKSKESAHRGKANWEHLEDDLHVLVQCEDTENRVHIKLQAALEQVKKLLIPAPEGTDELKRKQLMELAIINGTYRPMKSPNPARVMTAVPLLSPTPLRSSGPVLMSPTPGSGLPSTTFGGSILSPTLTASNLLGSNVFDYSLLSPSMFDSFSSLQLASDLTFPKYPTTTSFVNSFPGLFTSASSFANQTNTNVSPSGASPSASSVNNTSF
Numbers without * were called inactive; . = not tested or not shown. The list is partial; count on the stated rates, not on these rows.

SMILES | PME-1 primary | MEX-5 binding | TPT1 inh | MCL1-BIM inh | Bcl-xL primary | PAD4 inh | Fam108B counter | GLD-1 TGE inh
Cc1cc(C)n(-c2ccc(F)cc2)c(=O)c1C(=O)O | -2 | -0.1 | -3 | 2 | 3 | -1 | 1 | -1
Cc1cccc(N2C(N)=NC(N)=NC23CCCCC3)c1 | -5 | 2.3 | -4 | -2 | 4 | 1 | -1 | 10
Cc1ccc(C2=NNC(C(O)C(O)C(O)C(C)O)S2)cc1 (stereo unspecified) | 4 | 0.4 | -5 | 7 | 8 | 0 | 1 | 3
Cc1nc(SCC(=O)NCCc2ccccc2)n[nH]1 | -5 | 3.6 | -1 | -2 | -5 | -3 | 9 | 4
Cn1c(-c2ccc3c(c2)OCO3)cnc1NCc1cccc(Cl)c1 | 2 | -3.7 | 1 | 4 | 2 | 1 | 3 | 1
OCC(CO)(CO)N=Cc1c(O)ccc2ccccc12 | 0 | -0.3 | 0 | 19 | 19 | 5 | -3 | 3
O=C(CCl)Nc1cc2[nH]c(=O)[nH]c2cc1Br | 4 | . | 1 | 11 | 5 | 2 | 1 | 3
CCOC(=O)C1CCN(C(=O)c2ccc(CNS(=O)(=O)c3ccc(OC)cc3)cc2)CC1 | 2 | -0.2 | 2 | -3 | -3 | -2 | 8 | -7
c1ccc(C(c2nnnn2C2CCCC2)N2CCCCCC2)nc1 (stereo unspecified) | 4 | 1.1 | 0 | 4 | 3 | -3 | -2 | -4
O=S1(=O)N=C(Nc2nc3c(s2)CCCC3)c2ccccc21 | 1 | . | 2 | 0 | 1 | -3 | 1 | 4
COc1ccc(C2=NN(c3nc(C)cc(C)n3)C(=O)C2)cc1 | 4 | -7.4 | -3 | 11 | 3 | -1 | -4 | -4
Nc1ncc([N+](=O)[O-])cc1S(=O)(=O)c1ccccc1 | -1 | 2.2 | -4 | 10 | 5 | 2 | 2 | -1
COc1cc(CCC(=O)OCC(=O)NCC2CCCCC2)cc(OC)c1OC | -5 | 1.2 | -1 | -1 | 4 | -1 | 2 | 1
O=c1cc(C23CC4CC(CC(C4)C2)C3)[nH][nH]1 | 2 | -1.2 | -2 | 7 | 8 | -7 | 6 | 4
CCOC(=O)c1c(NC(=O)CCl)sc(C(=O)N(CC)CC)c1C | -2 | 0.9 | -2 | -2 | 1 | 9 | -2 | 5
CCN(CC)C(=O)C(=O)c1cn(CC(=O)N2CCc3ccccc3C2)c2ccccc12 | 10 | -2.4 | 2 | 1 | -1 | 4 | 3 | 4
COc1cccc(NC(=O)c2cc([N+](=O)[O-])ccc2NC(=O)CNCC2CCCO2)c1 (stereo unspecified) | -3 | 1.9 | 3 | 1 | 3 | 0 | 4 | 7
Cn1nc(C(=O)OCC(=O)N2CCc3ccccc32)c2ccccc2c1=O | -4 | -2.7 | 1 | -4 | -5 | -8 | -6 | 0
CSc1nc(Oc2ccc3ccccc3c2)c2sccc2n1 | -3 | -1.6 | -2 | 7 | 4 | -7 | -3 | -2
O=C(CCNC(=O)c1ccccc1)OCN1C(=O)c2ccccc2C1=O | -1 | 2.3 | -4 | 1 | -1 | 4 | -1 | 1
CC(=O)[C@H]1[C@H]([C@H](O)[C@H](O)CO)O[C@](O)(C(=O)O)C[C@@H]1O | -2 | . | 1 | 2 | 2 | 1 | -6 | -2
O=C(Nc1cnc2sccn2c1=O)c1ccccc1Cl | 0 | -3.2 | -1 | 3 | 6 | -3 | 0 | 2
CCc1nc2c(n1O)CCc1nonc1-2 | 0 | -2.2 | 0 | 1 | 1 | -2 | 1 | 9
Cc1nnc(NC(=O)CSc2nc(C(C)C)nc3ccccc23)s1 | -2 | 1.9 | 2 | -2 | -7 | 0 | 0 | 7
CCC1(O)c2ccccc2-c2ncccc21 (stereo unspecified) | 7 | -2.6 | -1 | -2 | 1 | 1 | 0 | 4
CN(C)/C=C/C(=O)c1nnn(C2CCCCC2)c1NC1CCCCC1 | -6 | 6.0 | 17 | -20 | -16 | 1 | 1 | -25
Cc1ccc(N(NC(=O)C(C)(C)O)C(=O)c2ccccc2)cc1C | 0 | 1.3 | -1 | 8 | 4 | -2 | -7 | -2
Cc1cc(C(F)(F)F)nc(Nc2nc(C)c3ccccc3n2)n1 | -1 | -2.4 | -3 | -7 | -1 | 4 | 2 | 2
Cc1cc(C)nc(SCNC(=O)c2ccc(Cl)cc2)n1 | 2 | 2.1 | -1 | 15 | 11 | -4 | -1 | 10
CCC(NC(=O)CCl)c1ccc(C)cc1 (stereo unspecified) | 4 | 1.4 | -6 | -4 | -2 | -2 | -1 | 2
O=C1COc2ccc(S(=O)(=O)NCCc3ccccc3)cc2N1 | -9 | 1.2 | 2 | -6 | 2 | -1 | -4 | -5
CN(Cc1ccccc1)C(=O)c1ccc2c(c1)OCO2 | -8 | 1.0 | 0 | 6 | 4 | 1 | -1 | 6
COc1ccc(-c2nc(CCl)cs2)cc1 | 3 | -1.7 | -2 | 0 | 5 | -3 | 5 | -5
COc1ccccc1NC(=S)N1CCc2cc(OC)c(OC)cc2C1 | -5 | 1.2 | -4 | 6 | 7 | -3 | 8 | 2
COc1ccc(C(=O)n2cc(C(=O)c3cc(C)ccc3O)cn2)cc1OC | -4 | 2.1 | 4 | 11 | -3 | 8 | 9 | -5
Cc1ccc(Cn2c(=O)n(Cc3ccco3)c(=O)c3ccccc32)cc1 | 2 | 1.6 | 3 | 0 | 0 | -1 | 3 | 6
Cc1cccc(NC(=O)C2SC(=Nc3c(C)cccc3C)C(C(=O)N3CCOCC3)=C2N)c1 (stereo unspecified) | -1 | 1.4 | 1 | 2 | 5 | -6 | 5 | 1
CCN(CC)CC(=O)Nc1ccc2c(c1)Nc1ccccc1CC2 | -3 | -5.5 | 2 | 9 | 16 | -2 | 2 | 3
CCOc1ccc(NC(=O)CN2C(=O)NC(C)(c3ccc(OC(F)F)cc3)C2=O)cc1 (stereo unspecified) | -5 | 2.1 | -2 | -5 | -1 | 0 | -2 | -2
CSC1=N/C(=C\c2ccc(Br)o2)C(=O)S1 | 1 | -1.4 | 6 | 25 | 7 | -6 | 4 | -2

In the list so far, 2 contain a thiophene ring, fused or not.
SMILES | PME-1 primary | MEX-5 binding | TPT1 inh | MCL1-BIM inh | Bcl-xL primary | PAD4 inh | Fam108B counter | GLD-1 TGE inh
CCOC(=O)c1c(NC(=O)CCl)sc(C(=O)N(CC)CC)c1C | -2 | 0.9 | -2 | -2 | 1 | 9 | -2 | 5
CSc1nc(Oc2ccc3ccccc3c2)c2sccc2n1 | -3 | -1.6 | -2 | 7 | 4 | -7 | -3 | -2

Next section.
SMILES | PME-1 primary | MEX-5 binding | TPT1 inh | MCL1-BIM inh | Bcl-xL primary | PAD4 inh | Fam108B counter | GLD-1 TGE inh
O=C(c1ccccc1)c1cc(-c2ccccc2)on1 | 0 | 2.7 | -2 | 6 | 2 | -1 | -3 | -2
Cc1ccc(NS(=O)(=O)c2ccc3c(c2)NC(=O)CC(=O)N3)cc1C | 2 | 1.0 | -1 | 8 | 3 | -7 | 0 | -2
CCOC(=O)C(C)(C)NS(=O)(=O)c1ccc(Cl)c([N+](=O)[O-])c1 | 7 | -0.8 | -3 | 5 | 3 | 1 | -1 | 1
CCOC(=O)C1=CCN(Cc2ccccc2)CC1 | -3 | 3.5 | 0 | 0 | 1 | 5 | -4 | -4
COc1ccc(-n2c3c(c(=O)[nH]c2=O)C(NC(=O)c2ccncc2)(C(F)(F)F)C(=O)N3)cc1 (stereo unspecified) | 3 | 0.6 | -3 | 2 | 9 | 1 | 4 | 0
COc1ccc(-n2c3c(c(=O)[nH]c2=O)C(NC(C)=O)(C(F)(F)F)C(=O)N3)cc1 (stereo unspecified) | -1 | 1.7 | 0 | 9 | 0 | -1 | -3 | -8
CC(SC1=NCCS1)C(=O)Nc1nnc(-c2ccc(F)cc2)s1 (stereo unspecified) | -7 | 1.3 | 0 | 5 | 3 | 3 | -2 | 10
O=C(Nc1nnc(-c2cccnc2)s1)c1cccs1 | -6 | -2.3 | -1 | 7 | 5 | 1 | 0 | 2
COC(=O)c1nc(NC(=O)C(C)C)n[nH]1 | -2 | -2.5 | 0 | 3 | 4 | 3 | -2 | 2
Cc1nc(NC(=O)c2ccc(Cl)cc2)sc1Cc1ccc2c(c1)OCO2 | 5 | 1.2 | 2 | 0 | 7 | -8 | -3 | -3
Nc1cc(=O)[nH]c(SCC(=O)Nc2cccc(Cl)c2Cl)n1 | 2 | 1.2 | -3 | -4 | 14 | -3 | -2 | 5
COc1cccc(NS(=O)(=O)c2cc3[nH]c(=O)c(=O)[nH]c3cc2C)c1 | 0 | -1.9 | 3 | -6 | 8 | -1 | 1 | 5
O=C1CSc2ccc(S(=O)(=O)NCc3ccc(F)cc3)cc2N1 | 0 | 2.0 | -4 | 7 | 7 | -2 | -1 | 1
C/C(=N/OCO/N=C(\C)c1ccccc1)c1ccccc1 | -2 | -1.7 | 0 | 5 | 2 | 1 | 0 | 0
CC(Cl)c1cc(-c2ncc(C(F)(F)F)cc2Cl)no1 (stereo unspecified) | -9 | -1.1 | 1 | 5 | 0 | -6 | -1 | 5
CCc1ccc2nc(SCC(=O)Nc3nnc(C)s3)c(C)cc2c1 | -4 | -2.8 | -1 | -1 | 6 | -9 | -6 | -5
Cc1ccc(C(=O)NC(=C(Cl)Cl)S(=O)(=O)c2ccc(Cl)cc2)cc1 | 7 | -4.3 | 1 | 7 | 7 | 11 | 0 | 6
Cc1c(N=C2NC(=O)C(CC(=O)Nc3ccc(Cl)cc3)S2)c(=O)n(-c2ccccc2)n1C (stereo unspecified) | 2 | -1.1 | -4 | 8 | 4 | -1 | 5 | -3
Cc1ccc2c(C(=O)CCl)c(C)[nH]c2c1 | 1 | 0.5 | 3 | -2 | -2 | -2 | -3 | 1
O=C(COC(=O)Cc1ccccc1[N+](=O)[O-])NCc1ccc(Cl)cc1 | -3 | 0.3 | -6 | -18 | -8 | 3 | -2 | 1
CCc1ccc(-n2c(SCC(=O)Nc3cc(C)[nH]n3)nc3[nH]ncc3c2=O)cc1 | 7 | 1.4 | -5 | -1 | 0 | 0 | 4 | -1
Cc1ccc(NS(=O)(=O)c2ccc3[nH]c(=O)c(=O)[nH]c3c2)cc1Cl | 0 | 0.8 | 0 | 1 | -1 | 1 | 3 | -4
CCc1ccc(C(=O)CSc2n[nH]c(C)n2)cc1 | -5 | 0.0 | 2 | -9 | -2 | -5 | 0 | 10
O=[N+]([O-])c1cc(Br)c(OCc2nnc(-c3ccccc3)o2)c(Br)c1 | 1 | 1.9 | -1 | -3 | 4 | -4 | 4 | 0
Cc1ccc(Nc2nc(N)nc(CN3CCc4ccccc4C3)n2)cc1 | 1 | 5.0 | -3 | 5 | 5 | 1 | -3 | -2
Cc1cnc(C(=O)OCC(=O)c2ccc(C3CCCCC3)cc2)cn1 | -6 | -0.7 | 0 | -2 | 9 | 3 | -2 | 2
CC1Sc2ccc(S(=O)(=O)NCCc3ccc(Cl)cc3)cc2NC1=O (stereo unspecified) | 5 | 1.6 | -1 | -2 | 1 | -6 | -1 | 4
Nc1nc2c(s1)COc1ccccc1-2 | 6 | 2.5 | -2 | 15 | 13 | -2 | -1 | 8

Record cards, as listed above:
`O=[N+]([O-])c1cc(Br)c(OCc2nnc(-c3ccccc3)o2)c(Br)c1` is entered as PME-1 primary: 1; MEX-5 binding: 1.9; TPT1 inh: -1; MCL1-BIM inh: -3; Bcl-xL primary: 4; PAD4 inh: -4; Fam108B counter: 4; GLD-1 TGE inh: 0
`Cc1ccc(NS(=O)(=O)c2ccc3[nH]c(=O)c(=O)[nH]c3c2)cc1Cl` is entered as PME-1 primary: 0; MEX-5 binding: 0.8; TPT1 inh: 0; MCL1-BIM inh: 1; Bcl-xL primary: -1; PAD4 inh: 1; Fam108B counter: 3; GLD-1 TGE inh: -4

Assay outcomes deposited in PubChem BioAssay by several laboratories.
